# gsp antag – gsp mutant antagonism; 340,000 tested, 0.4% active; Potency, µM (series often up to 76.9 µM), inactives show at the top dose activity change, negative = inhibition, hits mostly inhibitors; gsp-mutant cells, cAMP HTRF, 30 min; control for the full effect not named in the record; active = falling curve of any shape with a large fitted effect; inconclusive = falling curve, mostly with a smaller effect; inactive = flat or rising curve; cell line not stated here;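 also: intracellular cAMP measured with PDE inhibitor Ro 20-1724 present during compound exposure; potency is read from the fitted curve at half-maximal effect; % is scaled to controls: 0 for no effect and ±100 for the full control effect; nearly all actives have a fitted effect of over 65% in size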
#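 HTRF cAMP read-out (cAMP-d2 plus anti-cAMP antibody-K in lysis buffer, 30 min RT). Before lysis, cells are exposed to compounds with […] for 30 min at 37C in DPBS containing Ca/Mg, BSA and Tween 20.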
# TRPML1 blocker – blocks the human TRPML1 channel; Q9GZU1; activity change, negative = inhibition, % (test concentration not listed); TRPML1-inducible cells, Ca2+ dye fluorescence, FDSS; hits give low values; inhibition of EC80 agonist-evoked calcium signal; AID 624415; 390,000 tested, 0.02% active; in the data active means activity change below about -50%; inconclusive means about -30% to -50%; inactive means above about -30%;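 also: stimulus is agonist 54-4 at its EC80 concentration; % is scaled to controls: 0 for no effect and ±100 for the full control effect; compound concentration not given in the record; the text of the record puts the active cut at -80%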
# Target sequence (Q9GZU1 whole entry, looked up): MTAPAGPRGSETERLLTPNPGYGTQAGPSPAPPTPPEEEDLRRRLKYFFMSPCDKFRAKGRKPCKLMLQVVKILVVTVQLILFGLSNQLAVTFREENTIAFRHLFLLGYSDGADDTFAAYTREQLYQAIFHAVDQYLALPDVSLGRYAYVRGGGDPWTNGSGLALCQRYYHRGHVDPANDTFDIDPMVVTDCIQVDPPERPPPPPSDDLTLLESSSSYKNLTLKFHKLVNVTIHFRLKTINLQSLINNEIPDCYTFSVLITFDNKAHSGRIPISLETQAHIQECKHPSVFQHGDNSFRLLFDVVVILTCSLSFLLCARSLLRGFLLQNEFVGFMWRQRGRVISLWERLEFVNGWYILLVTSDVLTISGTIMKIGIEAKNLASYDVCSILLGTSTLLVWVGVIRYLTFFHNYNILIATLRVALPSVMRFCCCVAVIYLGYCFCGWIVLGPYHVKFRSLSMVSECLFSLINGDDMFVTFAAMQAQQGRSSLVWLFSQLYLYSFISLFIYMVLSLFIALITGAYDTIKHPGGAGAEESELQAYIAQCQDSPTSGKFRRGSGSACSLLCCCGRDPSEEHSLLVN
#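 Tet-induced TRPML1-DL cells loaded with Ca8 no-wash calcium dye were read kinetically on FDSS. Compound addition was followed by EC80 agonist 54-4 (4 uM final); inhibition was read over 110 s.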
# TRPV1 potentiator – potentiators of human vanilloid receptor 1 (TRPV1). potentiation, % at 8.33 µM. 320,000 tested, 0.02% active. Q8NER1. TRPV1-expressing cells, Fluo-8 calcium influx, capsaicin EC20 potentiation; host cell line not named in the record; control for the full effect not named in the record; active means potentiation above 80%; inconclusive means 30% to 80%; inactive means below 30%; also: 0% is about no effect
#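 TRPV1-expressing cells were cultured overnight at 35.5C and loaded with Fluo-8 calcium dye for 40 to 90 min at room temperature. After a 10 s baseline, compound was added and calcium influx was read kinetically for 3 min (ex 480/em 520 nm).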
# Sfp inh – blocks B. subtilis Sfp PPTase activity; Biochemical Sfp PPTase activity, qHTS; Potency, µM, for inactives: max response, negative = inhibition, actives largely listed as inhibitors; 310,000 tested, 3.5% active; AID 1490; active = well fitted inhibition curve with a large enough effect; inconclusive = small, poorly fitted or top-dose-only effect, or another doubt; inactive = no such curve, though single readings can be large or run the other way;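 also: the enzyme is Sfp with the accession as filed and its product quenches rhodamine fluorescence; potency is read from the fitted curve at half-maximal effect; 0% = enzyme reaction without inhibitor and -100% = no enzyme wells; top concentration of the series not given in the record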
#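 Compounds were incubated with enzyme (final 15 nM) for 15 min at room temperature before substrate addition started the reaction. Fluorescence at 525 nm excitation, 598 nm emission was recorded immediately and after 30 minutes.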
# ClpP mod – qHTS Assay for Activators of ClpP; AID 651965, 2013; 340,000 tested, 1.9% active; purified B. subtilis ClpP, FRET peptide cleavage, 20 min; Potency, µM (doses to about 57.5 µM), inactives show at the top dose activity change, negative = active; ATP-dependent Clp protease proteolytic subunit (Bacillus subtilis (strain 168)), P80244; active = well fitted falling curve with a large enough effect; inconclusive = small, poorly fitted or top-dose-only effect; inactive = no such curve, though single readings can be large or run the other way; also: potency is read from the fitted curve at half-maximal effect; the source files actives as falling curves though it sought activators and does not explain the sign; nearly all actives have a fitted effect of over 65% in size; many hits overshoot -100%
# Target sequence (P80244 whole entry, looked up): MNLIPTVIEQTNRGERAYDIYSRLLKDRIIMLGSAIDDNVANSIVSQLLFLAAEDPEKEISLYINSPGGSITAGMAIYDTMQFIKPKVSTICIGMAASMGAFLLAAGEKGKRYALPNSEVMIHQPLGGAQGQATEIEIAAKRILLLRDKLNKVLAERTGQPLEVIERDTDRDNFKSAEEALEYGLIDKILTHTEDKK
#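 Buffer: 100 mM Tris/HCl pH8, 100 mM KCl, 0.05% low protease BSA, 2.5% glycerol, 0.01% Tween-20. ClpP 10 microg/mL final; 20 min RT; delta FRET normalized to ADEP and DMSO controls.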
# Menin MLL FP FL – inhibitors of human menin-MLL interaction, wild-type MLL peptide; Fluorescence polarization, fluorescein-MLL peptide displacement from menin; FP activity change, % at 61.4 µM; 290,000 tested, under 10 active; AID 1766; inconclusive = falling polarisation curve, or a change in total fluorescence; inactive = total fluorescence flat and polarisation flat or rising; no compound was filed as active; the % refers to the polarisation; negative = inhibition;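 also: % of control where 0% means no effect; inhibitors lower the polarisation; unlabelled MLL peptide was the positive control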
# gsp ag – agonists of gsp mutant (McCune-Albright syndrome); gsp mutant cells, cAMP HTRF, 30 min; control for the full effect not named in the record; Potency, µM (doses to about 76.9 µM), for inactives: at the top dose activation (cAMP increase), usual class: activators; 340,000 tested, 0.13% active; active = well fitted activation curve with a large enough effect; inconclusive = small, poorly fitted or top-dose-only effect, or another doubt; inactive = no such curve, though single readings can be large or run the other way; cell line not stated here;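 also: phosphodiesterase inhibitor Ro 20-1724 added with compounds to block cAMP breakdown; potency is read from the fitted curve at half-maximal effect; nearly all actives have a fitted effect of over 60% in size; about a fifth of the inactives were tested at one dose only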
#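 Cells in DMEM/10% FBS with G418 were pretreated with compounds in DMSO plus […] (300 uM stock) for 30 min at 37C. cAMP was measured by HTRF (cAMP-d2 plus anti-cAMP antibody-K) after 30 min at room temperature.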
# * = called active by the depositor; ? = inconclusive; / = no result given; & = joins results of further samples; [ ] = another dose, or the depositor's remark.
SMILES,gsp antag,TRPML1 blocker,TRPV1 potentiator,Sfp inh,ClpP mod,Menin MLL FP FL,gsp ag
CCC1CCCCN1C(=O)CN1C(=O)CSC1=O (stereo not drawn),6%,-13,-4,3%,1.0%,-1.2,10%
Cc1nc2cc(S(=O)(=O)N(C)C)ccc2n1-c1ccccc1,-8%,24,-14,-22%,-1.9%,3.3,-28%
CC(C)(C)[C@@H]1COC(=O)[C@@H](NC(=O)OCC2c3ccccc3-c3ccccc32)C/C=C\C[C@@H](CC(=O)NCCO)C(=O)N1,9%,4,/,/,-3.4%,/,-30%[inhibitor]
Cc1ccc(S(=O)(=O)/N=C(\Nc2cc(C)on2)c2ccc(Cl)cc2)cc1,-19%,13,-9,3%,-0.1%,0.8,-2%[15.4 µM]
CCC(C)NC(=O)CCS(=O)(=O)c1ccc(Br)s1 (stereo not drawn),5%,-11,17,11%,0.5%,5.4,-19%
CCC1=NN2C(=N)/C(=C/c3c(C)nn(-c4ccccc4)c3Cl)C(=O)N=C2S1,?,10,-11,-2%,3.0%,5.9,-17%
Cc1cccc(C)c1NC(=O)C(Cl)=C(Cl)Cl,-22%,-11,2,16%,/,-0.1,-3%[15.4 µM]
COC(=O)CNC(=O)c1c(-c2ccccc2Cl)noc1C,4%,9,1,7%,-1.6%,0.2,-34%[inhibitor]
Cc1ccc(OCc2ccc(-c3ccccc3)cc2)c([N+](=O)[O-])n1,-10%,-9,-12,-8%,/,-0.4,5%[15.4 µM]
CCOc1ccc(/C=N/OCC(=O)NCc2ccc3c(c2)OCO3)cc1OC,3%,4,-8,19%,-1.9%,8.5,5%
O=C(Nc1ccc(CN2CCOCC2)cc1)c1cccc(-c2cc3ccccc3oc2=O)c1,?,-1,-5,-6%,-23%,-2.5,-1%
CS(=O)(=O)c1cccc(C(=O)OCC(=O)c2ccc3c(c2)OCCO3)c1,15%,-3,4,/,1.1%,/,4%[15.4 µM]
Cc1cc(C)nc(SCNC(=O)c2ccc(F)cc2)n1,-1%,16,2,50µM*,1.4%,2.2,?
COc1ccc(CCn2c(=N)c(C(=O)NCC3CCCO3)cc3c(=O)n4ccccc4nc32)cc1OC (stereo not drawn),-12%,9,-13,3%,-0.4%,/,6%
Cc1[nH]n(C)c(=O)c1C(=O)c1c(-c2ccccc2Cl)noc1C,-5%,-8,12,-2%,/,-5.1,?
COc1nc(-c2ccncc2)nc2ccccc12,-14%,19,3,2%,-0.3%,4.4,9%
COc1cccc(CNC(=O)c2ccc(C)c(NC3=NC4CS(=O)(=O)CC4S3)c2)c1 (stereo not drawn),7%,-19,-11,9%,-0.5%,1.2,2%
COc1cc(-c2c(-c3ccc4c(c3)OCO4)noc2-c2ccsc2)ccc1F,-16%,28,24,-19%,-4.6%&-5.1%,-2.6,-28%
CCOc1cc(/C=C2\N=C(SCC)SC2=O)cc([N+](=O)[O-])c1OC(C)=O,?,-5,4,?,0.0%,11,-22%
COc1ccc2cc(C#N)c(SCC(=O)NNC(=O)Cc3ccccc3)nc2c1,17%,3,8,-30%,?,5.3,?
CCc1nnc2n1N=C(c1ccc(OC)cc1)CS2,2%,11,1,16%,0.3%,4.0,10%
COc1cccc(/C=N/NC(=O)NC23CC4CC(CC(C4)C2)C3)c1O,-9%,77,/,/,-1.3%,/,0%[15.4 µM]
CCCOc1ccc(/C=c2\sc3nc(-c4ccco4)nn3c2=O)cc1OCC,0%,-1,-10,-19%,-0.9%,5.4,15%
O=C(NC1CCCC1)c1cc(-c2ccccc2O)on1,-5%,2,1,-8%,/,8.7,-10%[15.4 µM]
COc1cc2ccccc2cc1C(=O)NC1CCCC1,-23%,-2,/,/,0.3%,/,24%[15.4 µM]
Cc1ccc(-n2c(O)c(C=Nc3cc(C)on3)c3ccccc3c2=O)c(C)c1,-10%,-21,-3,-4%,-1.0%,14,-41%[inhibitor]
CC(=O)c1ccc(S(=O)(=O)NCC(=O)Nc2nc3ccccc3[nH]2)cc1,8%,12,20,/,-1.5%,/,?
Cc1ccccc1OCC(=O)Nc1ccc(C(=O)Nc2ccccc2C(=O)O)cc1,?,14,7,-3%,-3.1%,/,-29%
CCCC(=O)n1nc(-c2ccc(OC)cc2)nc1N,1%,-16,-1,4%,26%,1.1,-6%
CCn1c(SCC(N)=O)nnc1-c1cc2c(C)nn(-c3ccccc3)c2s1,-15%,29,1,15%,-14%,0.9,-42%[inhibitor]
O=C(NNC(=S)NC1CCCCC1)c1ccc(Cl)s1,-10%,49,11,9%,0.8%,0.5,7%[15.4 µM]
O=C(NC1CCN(C(=O)Nc2ccc(F)cc2)CC1)c1ccc(F)cc1,7%,-5,8,-9%,/,-3.2,-11%[15.4 µM]
COc1ccc(C)cc1NC(=O)n1ncc2c(C)cccc21,6%,0,13,-16%,-27%,0.6,8%
O=C1C2C(C(=O)N1/N=C/c1cc([N+](=O)[O-])c(O)cc1O)C1C=CC2C12CC2 (stereo not drawn),?,-15,-10,?,/,6.0,14%[15.4 µM]
CCCNC(=O)Cn1cnc2sc(C(=O)N3CCN(c4ccc(F)cc4)CC3)c(C)c2c1=O,-2%,5,-6,19%,-1.3%,5.7,?
Cc1n[nH]c(=S)n(NC(=O)CC(=O)Nn2c(=S)[nH]nc(C)c2=O)c1=O,/,14,26,27%,/,0.9,-22%[15.4 µM]
CC(C)Cn1c(SCc2nc3ccccc3c(=O)[nH]2)nc2ccccc2c1=O,-3%,-1,-11,2%,0.9%,-0.4,8%
COc1ccc2nc(SCC(=O)N(C)C3CCCCC3)[nH]c2c1,9%,3,16,/,34%,/,-11%
O=C(OCCCN=C1NS(=O)(=O)c2ccccc21)c1ccc([N+](=O)[O-])cc1,-15%,-2,-4,-2%,/,-5.6,-8%[15.4 µM]
CS(=O)(=O)CCC(C(=O)OCC(=O)c1ccc(Cl)cc1)N1C(=O)c2ccccc2C1=O (stereo not drawn),6%,14,-7,13%,-3.2%,2.4,3%
[N-]=[N+]=CC(=O)C(c1ccccc1)(c1ccccc1)c1ccccc1,-5%,5,-10,-8%,/,1.1,-8%[15.4 µM]
Cc1cc(C)c(NC(=O)CSc2nc(=O)n3cc(C)ccc3n2)c(C)c1,6%,13,-3,/,-15%,/,?
Cc1nnsc1C(=O)N/N=C/c1ccccc1Cl,12%,5,15,-8%,0.7%,5.7,-3%[15.4 µM]
O=C1SCCc2c1n(Cc1ccccc1)c1ccccc21,4%,-9,-2,-10%,?,-1.5,?
C=CCn1c(O)c(C=Nc2ccc(Cc3ccncc3)cc2)c(=O)[nH]c1=S,-19%,7,0,-24%,-2.1%,11,-9%
O=C(c1cccs1)N1CCc2c([nH]c3ccccc23)C1c1ccccn1 (stereo not drawn),-18%,12,-6,-7%,-3.4%,-0.4,?
COc1ccc(CN(CC(=O)NCc2ccccc2)C(=O)CCC(=O)Nc2cc(C)ccn2)cc1,-4%,29,4,15%,/,/,-2%[15.4 µM]
CN(C)C(=O)c1cc(Br)ccc1Cl,9%,8,-4,20%,-0.6%,0.2,-17%
NC(=O)C1CCN(c2ncc(C(F)(F)F)cc2Cl)CC1,12%,6,-8,11%,/,-0.7,-2%[15.4 µM]
CC(C)n1cc(CNC(=O)C2CCC(=O)N(Cc3ccccc3F)C2)cn1 (stereo not drawn),8%,3,-5,8%,1.9%,/,?

# Fetched by compound from the list above:
SMILES,gsp antag,TRPML1 blocker,TRPV1 potentiator,Sfp inh,ClpP mod,Menin MLL FP FL,gsp ag
CN(C)C(=O)c1cc(Br)ccc1Cl,9%,8,-4,20%,-0.6%,0.2,-17%
O=C1SCCc2c1n(Cc1ccccc1)c1ccccc21,4%,-9,-2,-10%,?,-1.5,?
Cc1cc(C)c(NC(=O)CSc2nc(=O)n3cc(C)ccc3n2)c(C)c1,6%,13,-3,/,-15%,/,?
O=C(c1cccs1)N1CCc2c([nH]c3ccccc23)C1c1ccccn1 (stereo not drawn),-18%,12,-6,-7%,-3.4%,-0.4,?
CC(C)n1cc(CNC(=O)C2CCC(=O)N(Cc3ccccc3F)C2)cn1 (stereo not drawn),8%,3,-5,8%,1.9%,/,?
Cc1nnsc1C(=O)N/N=C/c1ccccc1Cl,12%,5,15,-8%,0.7%,5.7,-3%[15.4 µM]

# Next entries.
SMILES,gsp antag,TRPML1 blocker,TRPV1 potentiator,Sfp inh,ClpP mod,Menin MLL FP FL,gsp ag
CCCC(=O)OCC(=O)Nc1cc(Cl)ccc1[N+](=O)[O-],-10%,4,4,14%,/,-0.2,-3%
CC(Sc1ncnc2sccc12)C(=O)Nc1ccc(S(N)(=O)=O)cc1 (stereo not drawn),4%,-1,/,/,/,/,?
Cc1ccc(N2CCCn3c2nc2c3c(=O)n(CCN3CCOCC3)c(=O)n2C)cc1,/,/,-4,-6%,/,2.5,/
COc1ccc(NC(=O)CN2C(=O)c3ccccc3Sc3ccc(C(=O)N4CCOCC4)cc32)c(OC)c1,5%,-1&-24,17,7%,-2.0%,1.5,7%[15.4 µM]
O=C(CSc1nnc(-c2cccnc2)o1)Nc1ccc(Br)cc1,5%,18,-2,9%,/,1.9,3%[15.4 µM]
COc1ccc(C(=O)NC2CC2)cc1OC1CCN(Cc2ccc(Cl)cc2)CC1,-1%,-5,-1,-2%,-3.3%,/,-4%[15.4 µM]
N#C/C(=C\c1ccc(O)cc1)C(=O)NCc1ccccc1,-10%,-16,?,6%,-2.1%,3.7,-52%[inhibitor]
Cc1ccn(-c2cccc(-n3ccc(C)n3)n2)n1,-5%,-2,-13,-5%,?,-1.1,-2%
O=C(COC(=O)c1cc(=O)[nH]c2ccccc12)NCc1ccccc1,10%,-9,/,/,-11%,/,-1%
CCCOc1ccc(C2=CSC3=NCCN23)cc1,6%,15,3,9%,/,-2.9,-42%[inhibitor]
CCOC(=O)C1=C(C)NC(C)=C(C(=O)OCC)C1C(=O)OCC(=O)NC1CCCCC1,-5%,-11,/,/,-2.9%,/,16%[15.4 µM]
O=C(CSc1nnc2n1CCCCC2)Nc1ccc(N2CCOCC2)cc1,-1%,-7,1,11%,/,0.0,-9%[15.4 µM]
